Screening data (PubChem BioAssay)
D2 PAM – Beta-Arrestin HTS for Positive Allosteric Modulators of the Human D2 Dopamine Receptor: Potentiators | AID 624464, 2012 | potentiation, % (no concentration beside the values) | DiscoveRx D2 beta-arrestin cells, luminescence, 90 min; 100% = 57 uM dopamine signal | D(2) dopamine receptor (Homo sapiens), P14416 | 360,000 tested, 0.23% active; active = potentiation of 50% or more; inconclusive = 30% to 50%; inactive = 30% or less;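 further: compound concentration not given in the record; tested on top of an EC20 dose of dopamine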
Target sequence (P14416 whole entry, looked up): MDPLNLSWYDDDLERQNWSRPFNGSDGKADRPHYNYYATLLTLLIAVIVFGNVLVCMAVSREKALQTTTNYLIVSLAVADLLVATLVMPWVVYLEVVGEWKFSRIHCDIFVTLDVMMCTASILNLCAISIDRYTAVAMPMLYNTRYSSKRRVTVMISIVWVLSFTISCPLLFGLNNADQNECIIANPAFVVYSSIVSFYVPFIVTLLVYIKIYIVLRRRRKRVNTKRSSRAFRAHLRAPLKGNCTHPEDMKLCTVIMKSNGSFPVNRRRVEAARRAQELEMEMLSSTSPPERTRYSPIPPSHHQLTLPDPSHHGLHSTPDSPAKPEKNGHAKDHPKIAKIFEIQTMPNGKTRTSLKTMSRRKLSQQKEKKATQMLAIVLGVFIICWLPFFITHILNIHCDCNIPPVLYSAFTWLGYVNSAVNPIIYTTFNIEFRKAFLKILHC
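PathHunter beta-arrestin assay in DiscoveRx D2 cells. Compounds were added with an EC20 of dopamine (50 nM final) for 90 min at 37 deg C. Luminescence was read 1 h after detection reagent, with 57 uM dopamine as the EC100 control.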
TRPML1 inh – qHTS for Inhibitors of the Human Mucolipin Transient Receptor Potential 1 (TRPML1); activity change, negative = inhibition, % (test concentration not listed); Mucolipin-1 (Homo sapiens), Q9GZU1; 390,000 tested, 0.02% active; AID 624415, 2012; TRPML1-inducible cells, Ca2+ dye fluorescence, FDSS; stronger effect = lower value; inhibition of EC80 agonist-evoked calcium signal; in the data active means activity change below about -50%; inconclusive means about -30% to -50%; inactive means above about -30%;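 further: stimulus is agonist 54-4 at its EC80 concentration; on the % scale 0 is the no-effect control and ±100 the full control effect; compound concentration not given in the record; the text of the record puts the active cut at -80%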
Target sequence (Q9GZU1 whole entry, looked up): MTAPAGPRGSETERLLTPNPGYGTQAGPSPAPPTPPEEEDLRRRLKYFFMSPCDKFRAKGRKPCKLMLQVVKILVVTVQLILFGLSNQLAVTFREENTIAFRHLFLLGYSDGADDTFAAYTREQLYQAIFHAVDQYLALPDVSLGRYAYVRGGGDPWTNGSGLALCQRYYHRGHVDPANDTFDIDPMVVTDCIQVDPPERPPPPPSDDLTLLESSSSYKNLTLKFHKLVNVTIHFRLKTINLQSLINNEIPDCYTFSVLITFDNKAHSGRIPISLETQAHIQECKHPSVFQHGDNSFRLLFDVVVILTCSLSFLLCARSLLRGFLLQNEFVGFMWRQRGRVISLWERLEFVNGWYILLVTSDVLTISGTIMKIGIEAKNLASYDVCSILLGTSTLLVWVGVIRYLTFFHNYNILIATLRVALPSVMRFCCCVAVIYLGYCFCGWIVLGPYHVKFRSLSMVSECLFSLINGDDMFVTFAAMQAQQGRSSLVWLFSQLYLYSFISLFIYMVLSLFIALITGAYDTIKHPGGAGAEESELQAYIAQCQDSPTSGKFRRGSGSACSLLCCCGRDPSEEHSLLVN
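Tet-induced TRPML1-DL cells loaded with Ca8 no-wash calcium dye were read kinetically on FDSS. Compound addition was followed by EC80 agonist 54-4 (4 uM final); inhibition was read over 110 s.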
D2 agonist – Beta-Arrestin HTS for Positive Allosteric Modulators of the Human D2 Dopamine Receptor: Agonists; D(2) dopamine receptor (Homo sapiens), P14416; DiscoveRx PathHunter D2 beta-arrestin, luminescence, 90 min; 100% = 57 uM dopamine signal; activation, % (no concentration beside the values); 360,000 tested, 0.084% active; in the data active = activation above about 40%; inconclusive = about 15% to 40%; inactive = below about 15%; further: compound concentration not given in the record; the text of the record calls up to 30% inactive
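DiscoveRx PathHunter D2 beta-arrestin cells (2,100/well) attached overnight, then compound-stimulated 90 min at 37 C in HBSS/10 mM HEPES/0.1% Tween-20 buffer; beta-galactosidase complementation read by luminescence after 1 h at ambient temperature. Dopamine 57 uM final (EC100) as control.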
Six1-Eya2 inh – qHTS Assay for Inhibitors of the Six1/Eya2 Interaction | Homeobox protein SIX1 (Homo sapiens) + Protein phosphatase EYA2 (Homo sapiens), … | AlphaScreen GST-Six1/His-Eya2 binding, biochemical; stronger effect = lower value; control for the full effect not named in the record | activity change, % (test concentration not listed) | 360,000 tested, 0.56% active | AID 651725, 2012; in the data active = activity change below about -65%; inconclusive = about -30% to -65%; inactive = above about -30%; further: on the % scale 0 is the no-effect control and ±100 the full control effect; compound concentration not given in the record
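Homogeneous AlphaScreen proximity assay pairing GST-Six1 with His-tagged Eya2 (added as 5X mix: 250 nM and 500 nM) in 50 mM Tris pH 8.0, 300 mM NaCl, 1 mM TCEP. Glutathione donor and nickel acceptor beads; 1 h, 37 °C, dark.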
PINK1 expr mod – A Quantitative High throughput Screen to Identify Chemical Modulators of PINK1 Expression; 410,000 tested, 0.2% active; AID 624263, 2012; Potency, µM (doses to about 76.6 µM), for inactives: at the highest dose activation (PINK1 increase), actives largely listed as activators; PINK1 immunofluorescence, high-content cytometry, 24 h; active = well fitted activation curve with a large enough effect; inconclusive = small, poorly fitted or top-dose-only effect; inactive = flat fitted curve, though single readings scatter; cell line not stated here;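 further: potency means the concentration at half of the fitted maximal effect; % of control where 0% means no effect; nearly all actives have a fitted effect of over 65% in size; a mitochondrial uncoupler was the plate control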
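Readout is PINK1 immunofluorescence, quantified alongside mitochondrial, cell and nuclear markers by laser-scanning microplate cytometry. Cells from a stable line were exposed to compound titrations (5 concentrations) for 24 hours, with CCCP controls.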
TRPML1 ag – qHTS for Agonists of the Human Mucolipin Transient Receptor Potential 1 (TRPML1). activation, % (test concentration not listed). Mucolipin-1 (Homo sapiens), Q9GZU1. TRPML1-expressing cells, Ca2+ dye fluorescence, FDSS; host cell line not named in the record; reference of the full effect not given here. 410,000 tested, 0.12% active; in the data active = activation above about 50%; inconclusive = about 30% to 50%; inactive = below about 30%; further: 0% is about no effect; the text of the record puts the active cut at 80%
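Agonist activity was taken from a 110 s kinetic Ca2+ dye read on the FDSS after pinning compounds onto TRPML1-DL cells. The cells were seeded at 1,500/well with Tet inducer, incubated about 16 h, then dye-loaded at room temperature.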
The depositor's hits bear a star; ? = inconclusive; · = no result given; [ ] = remark or other dose.

| canonical_smiles | D2 PAM | TRPML1 inh | D2 agonist | Six1-Eya2 inh | PINK1 expr mod | TRPML1 ag |
| --- | --- | --- | --- | --- | --- | --- |
| COc1ccc(S(=O)(=O)NCc2ccccn2)cc1 | -10 | 0 | -1.2 | 7 | 1.8% | -0.4 |
| CC1CCC2(CC1)SCC(=O)N2c1ccccc1 (stereo unspecified) | 5 | -12 | -3.2 | 3 | -1.4% | -1.1 |
| O=C(Cc1ccc(-n2c(=O)[nH]c3ccccc3c2=O)cc1)N1CCN(c2cccc(Cl)c2)CC1 | 5 | 15 | 3.6 | -6 | -1.1% | 1.6 |
| CCN(C[C@H]1N[C@@](C)(C(=O)OC)[C@H]2C(=O)N(Cc3ccccc3)C(=O)[C@@H]12)S(=O)(=O)c1ccccc1 | · | 1 | -1.4 | -4 | -0.3% | -0.7 |
| NS(=O)(=O)c1ccc(-n2nc(C(=O)O)cc2-c2ccc(Cl)cc2)cc1 | -2 | -7 | 0.4 | 2 | -0.6% | 0.1 |
| Cc1ccc(Cl)cc1N1CCN(C(=O)C2CCN(Cc3nc(-c4cccc(Cl)c4)oc3C)CC2)CC1 | · | 46 | · | · | 1.7% | 0.4 |
| O=C(c1ccc(Br)o1)N1CCN=C1SCc1cccnc1 | -10 | 13 | -7.5 | -11 | 2.3% | -0.5 |
| CC1=CC2=NC(=O)/C(=C/c3cccs3)C(=N)N2O1 | -4 | 11 | -6.6 | 1 | 1.8% | -0.1 |
| COC(=O)[C@@]1(Cc2ccc(F)cc2)[C@H]2c3cc(C(=O)N4CCCC4)n(C)c3C[C@H]2CN1C(=O)c1ccccc1 | · | · | · | -6 | 6.2% | 5.2 |
| COc1ccc(CCNC(=O)c2cccc(NC3=NC4CS(=O)(=O)CC4S3)c2)c(OC)c1 (stereo unspecified) | -2 | 26 | 3.5 | 2 | 0.2% | 0.2 |
| Cc1ccc(C2c3c(oc4ccccc4c3=O)C(=O)N2c2nnc(C(C)C)s2)o1 (stereo unspecified) | 0 | 7 | -1.4 | -3 | 8.5% | 1.9 |
| COCCOC(=O)c1c(C)n(C)c2ccc(OC(=O)c3ccco3)cc12 | -8 | -18 | 1.1 | 7 | ? | 0.8 |
| Cc1c(C(=O)N(Cc2cccc(F)c2)C2CCS(=O)(=O)C2)oc2cc(Br)ccc12 (stereo unspecified) | · | 28 | · | · | -1.2% | 1.2 |
| CSCCc1nc(SCC(=O)Nc2nnc(C)s2)[nH]c1C | 2 | 10 | -1.6 | 3 | -0.6% | 0.1 |
| CNC(=O)COC(=O)CCC(=O)c1cccs1 | -4 | 12 | -8.2 | 9 | 3.8% | -0.2 |
| COc1cc(-c2nc(-c3ccc4c(c3)[nH]c(=O)n4C)no2)cc(OC)c1OC | · | 31 | · | · | -1.4% | 2.1 |
| C=CCNC(=O)COC(=O)c1cc(S(=O)(=O)N2CCCCC2)ccc1Cl | -5 | -5 | 3.1 | 8 | 1.1% | 1.1 |
| Cc1cc(C(=O)NCCc2ccccc2)ccc1[N+](=O)[O-] | -18 | -4 | -3.1 | -2 | -4.0%[38.3 µM] | -0.5 |
| O=C1OCC2=C1C(c1ccc(F)cc1)c1cc3c(cc1N2)OCCO3 (stereo unspecified) | 4 | 12 | 0.3 | 11 | 3.8% | 0.8 |
| C/C(=N\NC(=O)c1ccncc1)c1ccc(N(C)C)cc1 | -10 | 13 | -2.7 | 6 | -0.5% | 0.2 |
| CCOC(=O)c1ccc(NC(=O)CCS(=O)(=O)c2ccc(Br)s2)cc1 | -8 | -4 | -2.6 | -4 | 6.9% | 0.1 |
| CCOc1ccccc1NC(=O)c1ccccc1-c1ccccc1 | -7 | -1 | -2.9 | 5 | 3.2% | 1.1 |
| CC(C)c1nnc(NC(=O)CCC(=O)Nc2ccccc2)s1 | 0 | 23 | 4.8 | 0 | -0.4% | 2.2 |
| COc1ccc(C2=NOC(C3(S(=O)(=O)c4ccccc4)CC(O)C3)C2)cc1 (stereo unspecified) | -6 | -5 | 1.4 | 11 | -0.4% | 0.0 |
| CCCCOc1ccc(C(=O)N2CCCCC2CCN2CCOCC2)cc1 (stereo unspecified) | · | 19 | · | · | 1.3% | 0.5 |
| COC(=O)C(Nc1ccccc1Cl)(c1cc(C)c(O)c(C)c1)C(F)(F)F (stereo unspecified) | 28 | -14 | 6.1 | -1 | -1.2% | 0.1 |
| O=C(NCCCN1CCOCC1)c1sc2cc(Cl)ccc2c1Cl | -17 | 10 | 0.5 | -4 | 1.0% | -0.6 |
| CCOC(=O)C1Nc2ccc(Br)cc2C2C=CCC12 (stereo unspecified) | 1 | 8 | 8.1 | -17 | 5.1% | 0.6 |
| O=C1c2ccccc2C2(c3ccccc3)NCCCN12 (stereo unspecified) | -3 | -4 | -2.4 | -4 | 0.1% | -0.4 |
| CC(=O)NC1(c2cccc(F)c2)CCN(CC(=O)NC(C)C)CC1 | -31 | -6 | -3.8 | 0 | 2.5% | -0.4 |
| Cc1ccc(C)c(N2C(=O)N(Cc3ccccc3C)c3ccccc3S2(=O)=O)c1 | · | -8 | · | · | 1.7% | 1.3 |
| O=C(OCCN1CCOCC1)C1(c2ccccc2)CCCCC1 | -17 | 27 | -6.4 | -4 | 1.7% | -0.4 |
| O=C(CCNC(=O)C1CCN(S(=O)(=O)c2ccc(F)cc2)CC1)NCc1ccccn1 | 3 | -4 | -2.7 | 2 | 0.8% | -0.5 |
| Cc1cccc2sc(NC(=O)CSCc3ccccc3)nc12 | -17 | -10 | -2.6 | 3 | 7.8%[38.3 µM] | -0.2 |
| CCC(C)Nc1cc(C)nc2ncnn12 (stereo unspecified) | 7 | 31 | -0.7 | 0 | -0.7% | 2.8 |
| Cc1nc2cc(NC(=O)NC(C)(C)C)ccc2n1C | -5 | 4 | -4.5 | 2 | -0.6% | 0.2 |
| Cc1ccc(C(=O)COC(=O)C(C)N2C(=O)C3C4C=CC(C4)C3C2=O)cc1C (stereo unspecified) | 1 | 1 | 7.3 | 0 | -0.7% | -0.3 |
| COc1ccc([C@H]2CC(=O)C[C@@H](CCn3cccn3)O2)cc1 | · | · | · | 0 | -0.9% | -0.5 |
| O=C(CSc1ncccn1)Nc1ccc2[nH]c(=O)[nH]c2c1 | 6 | 21 | -5.1 | -5 | -1.3% | -0.2 |
| CCOC(=O)c1ccc(NS(=O)(=O)N2CCCCCC2)cc1 | -6 | 12 | -2.1 | -8 | ? | 2.0 |

New compounds follow:
Order of results: D2 PAM	TRPML1 inh	D2 agonist	Six1-Eya2 inh	PINK1 expr mod	TRPML1 ag
> Cn1nccc1C(=O)N1CCN(c2ccccc2Cl)CC1
 : -17	20	0.2	6	0.5%	0.4
> CC1(C)N=C(/C=N/O)C=[N+]1[O-]
 : -18	?	-1.8	1	-0.4%	0.3
> CCCC(=O)OC1CC(C)N(C(=O)c2ccccc2)c2ccc(C)cc21 (stereo unspecified)
 : -37	-6	-3.0	-2	2.3%	1.6
> O=C(CCNS(=O)(=O)c1c(Cl)cccc1Cl)OCC(=O)c1ccccc1
 : -21	-2	-5.5	-1	-1.1%	0.0
> COCCn1c(SCC(=O)Nc2ccc3c(c2)OCCO3)nnc1C(C)C
 : -32	-10	-3.5	6	3.3%	-1.7
> Cc1ccc(C(=O)Nn2c(C)nc3ccccc3c2=O)cc1C
 : 2	·	-0.9	4	-0.3%	·
> O=C(Cc1ccc([N+](=O)[O-])cc1)OCc1ccc([N+](=O)[O-])cc1
 : -1	19	-0.7	-7	-1.1%	2.3
> CC(C)Oc1ccc(F)cc1-c1cc(C(=O)NCc2cccs2)[nH]n1
 : -13	·	1.4	-6	-0.5%	-0.6
> CN(Cc1ccc(Cl)cc1)C(c1cc2ccccc2o1)c1nnnn1C(C)(C)C (stereo unspecified)
 : ·	·	·	10	2.2%	0.3
> N#CC1=C(N)OC2=C(C(=O)CC(c3ccccc3)C2)C1c1ccc2c(c1)OCO2 (stereo unspecified)
 : -27	-4	-10	-16	5.3%	0.9
> Cc1csc2cc(-c3cccc([N+](=O)[O-])c3)c(-c3cccc([N+](=O)[O-])c3)c[n+]12
 : -7	-2	-5.4	4	-0.5%	-0.3
> CCc1cc2c(=O)c(-c3nc4ccccc4n3C)coc2c(CN2CCCCC2C)c1O (stereo unspecified)
 : 2	28	-0.1	-27	0.6%	2.6
> CC(CN1CCCCC1)NC(=O)c1scnc1-c1ccccc1 (stereo unspecified)
 : -13	·	-3.3	4	-0.7%	-0.3
> Nc1cc2c(cc1Br)[nH]c(=O)c1ccccc12
 : 23	3	?	-17	-2.7%	0.7
> CC(NC(=O)COC(=O)c1cc(Cl)ccc1O)C1CC2CCC1C2 (stereo unspecified)
 : -2	-9	-2.7	10	?	0.4
> COc1ccc(NC(=O)C(NS(=O)(=O)c2cccc3nsnc23)C(C)C)cc1 (stereo unspecified)
 : ·	52	·	·	2.3%	-0.5
> CC(C)Oc1cc2ccccc2cc1CNC[C@H]1O[C@@H](n2cnc3c(N)ncnc32)[C@H](O)[C@@H]1O
 : -11	2	-1.8	4	0.8%	-0.6
> COc1cc(NC(=O)COc2cc3oc(=O)cc(C)c3cc2Cl)cc(OC)c1OC
 : -7	7	-0.1	-8	-0.7%	0.1

3 compounds out of the list above, arranged by their value in D2 PAM, lowest first:
smiles | D2 PAM
O=C(CCNS(=O)(=O)c1c(Cl)cccc1Cl)OCC(=O)c1ccccc1 | -21
CC(CN1CCCCC1)NC(=O)c1scnc1-c1ccccc1 (stereo unspecified) | -13
Cc1csc2cc(-c3cccc([N+](=O)[O-])c3)c(-c3cccc([N+](=O)[O-])c3)c[n+]12 | -7

Nothing new here: 2 of the compounds above.
Order of results: D2 PAM	TRPML1 inh	D2 agonist	Six1-Eya2 inh	PINK1 expr mod	TRPML1 ag
> Cn1nccc1C(=O)N1CCN(c2ccccc2Cl)CC1
 : -17	20	0.2	6	0.5%	0.4
> CC1(C)N=C(/C=N/O)C=[N+]1[O-]
 : -18	?	-1.8	1	-0.4%	0.3
